NOMO-1 viab: STK33 inhibitor candidate reducing NOMO-1 cell viability | NOMO-1 AML viability, CellTiter-Glo luminescence, 72 h | inhibition, % (test concentration not listed) | hit rate 7.5% among 37,000 | AID 2330;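 active means most replicates above 80%; inconclusive means exactly half above 80%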;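 further: wells of about 30 µL received 25 nL stock; 0% = median of vehicle wells and 100% = reference inhibitor level; the first replicate is given; inactives centre near 10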
Starred values were filed as active, the others as inactive; u = inconclusive.

Start of the listing, in advance, 3 compounds:
SMILES	NOMO-1 viab
CN1CCN(C(=O)CN(c2cccc(Br)c2)S(=O)(=O)c2ccccc2)CC1	24
COc1ccc(NC(=O)N(C)C[C@@H]2OCCCC[C@@H](C)Oc3ccc(NS(=O)(=O)c4ccc(F)cc4)cc3C(=O)N([C@H](C)CO)C[C@@H]2C)cc1	22
COc1ccc(C(=O)Oc2ccc(C)c3c2C(=O)OC(C)C3)c2c1C(=O)OC(C)C2 (configuration not stated)	-13

All compounds of this part, repeating the preview:
SMILES	NOMO-1 viab
CN1CCN(C(=O)CN(c2cccc(Br)c2)S(=O)(=O)c2ccccc2)CC1	24
COc1ccc(NC(=O)N(C)C[C@@H]2OCCCC[C@@H](C)Oc3ccc(NS(=O)(=O)c4ccc(F)cc4)cc3C(=O)N([C@H](C)CO)C[C@@H]2C)cc1	22
COc1ccc(C(=O)Oc2ccc(C)c3c2C(=O)OC(C)C3)c2c1C(=O)OC(C)C2 (configuration not stated)	-13
O=c1[nH]nc(-c2ccc(NCCN3CCOCC3)c([N+](=O)[O-])c2)c2ccccc12	26
COc1ccc(S(=O)(=O)N(C)CC(=O)Nc2cccc(F)c2)cc1OC	28
COC1=CC(=O)C[C@@H](C)[C@]12Oc1cc(OC)cc(OC)c1C2=O	57
Cc1ccc(NC(=O)CSc2nc3c(c(C(F)(F)F)n2)CCCC3)cc1C	-6
COc1ccc(S(=O)(=O)Nc2ccc3c(c2)CC(=O)N([C@@H](C)CO)C[C@@H](C)[C@@H](CN(C)Cc2ccc(C(=O)O)cc2)O3)cc1	-21
C[C@H]1CN([C@@H](C)CO)C(=O)Cc2cc(NS(=O)(=O)c3ccc(F)cc3)ccc2O[C@H]1CN(C)Cc1ccc(C(=O)Nc2ccccc2N)cc1	140*
CN(C)c1nc(N)nc(CSc2ccccn2)n1	-26
CCOC(=O)c1c(NC(=O)Cn2cnc3ccccc3c2=O)sc2c1CCCC2	26
CC(C)NC(=O)Nc1ccc2c(c1)CC(=O)N([C@H](C)CO)C[C@@H](C)[C@H](CN(C)Cc1ccc(C(F)(F)F)cc1)O2	28

An excerpt of these results, field by field.
> CC(C)NC(=O)Nc1ccc2c(c1)CC(=O)N([C@H](C)CO)C[C@@H](C)[C@H](CN(C)Cc1ccc(C(F)(F)F)cc1)O2
- NOMO-1 viab: 28

> CCOC(=O)c1c(NC(=O)Cn2cnc3ccccc3c2=O)sc2c1CCCC2
- NOMO-1 viab: 26

> CN(C)c1nc(N)nc(CSc2ccccn2)n1
- NOMO-1 viab: -26

(next part)
SMILES	NOMO-1 viab
c1ccc(-c2nsc(N3CCOCC3)n2)cc1	-1
C[C@@H]1CN([C@H](C)CO)C(=O)c2cccc(NS(C)(=O)=O)c2O[C@@H]1CN(C)S(=O)(=O)c1cn(C)cn1	-9
O=C(COc1ccccc1[N+](=O)[O-])Nc1ccc2oc(-c3cccc(Cl)c3)nc2c1	30
O=C(CSc1nnnn1-c1ccc(F)cc1F)Nc1ccc2c(c1)OCCO2	5
Cc1ccccc1OCC(=O)Nc1ccccc1C(=O)N1C(C)CCCC1C (configuration not stated)	30
COc1ccc(NC(=O)N(C)C[C@@H]2OCCCC[C@@H](C)Oc3ccc(NC(=O)Cc4ccccc4)cc3C(=O)N([C@H](C)CO)C[C@@H]2C)cc1	-8
CNC[C@@H]1OCCCC[C@@H](C)Oc2ccc(NS(=O)(=O)c3ccc(F)cc3)cc2C(=O)N([C@H](C)CO)C[C@@H]1C	0
Cc1noc(C)c1S(=O)(=O)Nc1ccc2c(c1)C(=O)N([C@H](C)CO)C[C@@H](C)[C@H](CN(C)C(=O)Nc1ccc3c(c1)OCO3)O2	-5
C[C@H](CO)N1C[C@H](C)[C@H](CN(C)Cc2ccc(C(=O)O)cc2)Oc2ccc(NC(=O)C3CCCCC3)cc2C1=O	-4
CCOC(=O)c1c(NC(=O)CSc2nccc(C)n2)sc2c1CCCC2	54
Cc1cccc(C)c1OCC(=O)Nc1cccnc1	32
C[C@H]1CN([C@@H](C)CO)C(=O)c2cccc(NS(=O)(=O)c3ccc(Cl)cc3)c2O[C@@H]1CN(C)C(=O)Nc1ccccc1	19
C[C@@H]1CN([C@@H](C)CO)C(=O)c2cccc(NC(=O)c3ccncc3)c2O[C@H]1CN(C)S(C)(=O)=O	-23
COc1ccc(S(=O)(=O)N(C)C[C@H]2OCCCC[C@@H](C)Oc3ccc(NC(=O)CCC(F)(F)F)cc3C(=O)N([C@H](C)CO)C[C@@H]2C)cc1	-2
C[C@@H]1CN([C@H](C)CO)C(=O)Cc2cc(NC(=O)Cn3cnnn3)ccc2O[C@H]1CN(C)S(=O)(=O)c1cccs1	7
COc1ccc([N+](=O)[O-])cc1N(CC(=O)N1CCCC1)S(C)(=O)=O	-16
C[C@H]1CN([C@@H](C)CO)C(=O)c2cccc(NC(=O)Nc3ccc4c(c3)OCO4)c2O[C@H]1CN(C)S(=O)(=O)c1ccccc1	15
CC(=O)O[C@@H]1c2c(C)coc2C(=O)[C@@]23O[C@@H]2CC[C@H](C)[C@@]13C	20
O=C(CSc1nc(-c2ccccc2)cs1)Nc1ccccc1C(F)(F)F	12
C[C@H](CO)N1C[C@H](C)[C@H](CN(C)S(C)(=O)=O)Oc2c(NC(=O)Nc3cccc4ccccc34)cccc2C1=O	23
C[C@@H]1CN([C@H](C)CO)C(=O)Cc2cc(NS(=O)(=O)c3cn(C)cn3)ccc2O[C@H]1CN(C)S(=O)(=O)c1cccs1	-16
O=C(CCC1COc2ccccc2O1)NCc1ccco1 (configuration not stated)	7
CCOC(=O)CSc1n[nH]c(CC)n1	7
C[C@H](CO)N1C[C@H](C)[C@H](CN(C)Cc2ccc3c(c2)OCO3)Oc2c(NC(=O)c3nc4ccccc4s3)cccc2C1=O	69

2 records picked at random from the list so far:
SMILES	NOMO-1 viab
COC1=CC(=O)C[C@@H](C)[C@]12Oc1cc(OC)cc(OC)c1C2=O	57
CC(=O)O[C@@H]1c2c(C)coc2C(=O)[C@@]23O[C@@H]2CC[C@H](C)[C@@]13C	20

New compounds follow:
SMILES	NOMO-1 viab
Oc1cc(O)cc(/C=C/c2ccccc2)c1	8
C=CCn1c(-c2ccc(OC)cc2)c(C)sc1=Nc1ccc(C)cc1	23
COc1ccc(CNCc2cccc(OC)c2)cc1	-9
Cc1noc(C)c1S(=O)(=O)N(C)C[C@H]1Oc2ccc(NS(=O)(=O)c3cccs3)cc2CC(=O)N([C@@H](C)CO)C[C@@H]1C	-29
Cc1ccnc(NC(c2cccc(Cl)c2)c2ccc3ccc(C)nc3c2O)c1 (configuration not stated)	118*
C[C@H]1CN([C@@H](C)CO)C(=O)c2cc(NS(C)(=O)=O)ccc2O[C@H]1CN(C)C(=O)NC1CCCCC1	44
C[C@@H]1CN([C@@H](C)CO)C(=O)c2cc(NC(=O)Cn3cnnn3)ccc2O[C@H]1CN(C)Cc1ccc(C(F)(F)F)cc1	-7
CCN(CC(=O)Nc1ccccc1F)S(=O)(=O)c1ccc2ccccc2c1	-9
COc1ccc(-c2nnc(SCCCN3C(=O)c4cccc5cccc(c45)C3=O)n2C)cc1OC	42
C[C@@H]1CN([C@H](C)CO)C(=O)c2cc(NC(=O)Nc3ccc(C(F)(F)F)cc3)ccc2O[C@H]1CN(C)C(=O)NC1CCCCC1	26
C[C@H]1CN([C@@H](C)CO)C(=O)c2cccc(NC(=O)C3CCOCC3)c2O[C@H]1CN(C)S(=O)(=O)c1ccc(F)cc1	12
O=C(Nc1ccc(F)c(Cl)c1)C1CC(=O)n2ncnc2N1 (configuration not stated)	0
CCCCCCCC/C=C\CCCCCCCc1cccc(O)c1C(=O)O	35
Oc1cc(C2CCCCC2)cc(C2CCCCC2)c1	137*
C[C@@H]1CCCCO[C@H](CN(C)Cc2ccc(C(=O)O)cc2)[C@@H](C)CN([C@H](C)CO)C(=O)c2cc(NS(=O)(=O)c3cccs3)ccc2O1	3
COc1cc(O[C@@H]2O[C@H](CO)[C@@H](O)[C@H](O)[C@H]2O)cc(OC)c1OC	15
C[C@H]1CN([C@@H](C)CO)C(=O)c2cc(NC(=O)CCCN(C)C)ccc2O[C@H]1CN(C)S(=O)(=O)c1cn(C)cn1	-1
C[C@@H]1CN([C@@H](C)CO)C(=O)c2cccc(NC(=O)C3CC3)c2O[C@@H]1CN(C)C(=O)Nc1ccc(F)cc1	1
O=C(NC1CCCCC1)c1c(NC(=O)c2cc(-c3cccnc3)nc3ccccc23)sc2c1CCC2	35
C[C@H](CO)N1C[C@H](C)[C@@H](CN(C)CC2CCCCC2)Oc2c(NC(=O)Nc3ccccc3)cccc2C1=O	u
C[C@@H]1CN([C@H](C)CO)C(=O)c2cccc(NC(=O)C3CCCCC3)c2O[C@H]1CN(C)Cc1ccc(Oc2ccccc2)cc1	52
Cc1noc(C)c1NC(=O)N(C)C[C@@H]1Oc2ccc(NS(C)(=O)=O)cc2CC(=O)N([C@H](C)CO)C[C@H]1C	8
CCOC(=O)c1c(NC(=O)c2ccccc2N(C)S(C)(=O)=O)sc2c1CCCC2	35
C[C@H](CO)N1C[C@H](C)[C@@H](CN(C)C(=O)Nc2ccc3c(c2)OCO3)Oc2ccc(NS(=O)(=O)c3ccc(Cl)cc3)cc2C1=O	-7
Cc1noc(C)c1NC(=O)N(C)C[C@@H]1Oc2c(NS(C)(=O)=O)cccc2C(=O)N([C@@H](C)CO)C[C@@H]1C	-12
Cc1ccc(-c2csc3ncnc(SCc4csc(C)n4)c23)cc1	12
COC(=O)c1cc(OC)c(OC)cc1NC(=O)COc1ccc(Br)cc1Cl	17
O=C(Nc1cccc(S(=O)(=O)C(F)F)c1)c1ccc(S(=O)(=O)N2CCOCC2)cc1	-14
COc1ccc(-n2c(SCC(=O)Nc3ccc(F)cc3F)nnc2-c2ccco2)cc1	-6
C[C@H]1CN([C@@H](C)CO)C(=O)c2cccc(NC(=O)NC3CCCCC3)c2O[C@H]1CN(C)Cc1ccc2c(c1)OCO2	33
COc1cc(NC(=O)COc2cc(Cl)c(Cl)cc2Cl)ccc1NC(=O)c1cc2ccccc2o1	u
COC(=O)c1c(C(=O)OC)c2n(c1C)CSC2	-9
Cc1cc(-n2nc3ccccc3n2)c2oc(SCc3nnc(-c4ccccc4)o3)nc2c1	7
COc1ccc(NC(=O)N(C)C[C@@H]2Oc3ccc(NC(=O)NC4CCCCC4)cc3C(=O)N([C@H](C)CO)C[C@@H]2C)cc1	4
C[C@H]1CN([C@@H](C)CO)C(=O)Cc2cc(NS(=O)(=O)c3ccc(Cl)cc3)ccc2O[C@@H]1CN(C)S(=O)(=O)c1ccc(Cl)cc1	8
COc1ccc(CN(C)C[C@@H]2Oc3ccc(NS(=O)(=O)c4ccc(OC)cc4)cc3C(=O)N([C@@H](C)CO)C[C@H]2C)cc1	15
c1ccc(Cn2c(SCc3nc4ccccc4[nH]3)nc3ccccc32)cc1	34
O=C(NCc1ccccn1)Nc1ccc([N+](=O)[O-])cc1	22
NC(=O)c1ccc(N2CCN(C(c3ccccc3)c3ccccc3)CC2)nc1	109*
O=C(Cn1cnc2ccccc2c1=O)Nc1ccccc1Br	29
CCC(=O)Nc1cccc(NC(=O)COc2ccc3ccccc3c2)c1	21
Cc1ccc(OCCCCSc2nc(C)cc(=O)[nH]2)c(C)c1	23
C[C@H]1CN([C@@H](C)CO)C(=O)c2cccc(NC(=O)C3CC3)c2O[C@H]1CN(C)C(=O)Nc1ccccc1	21
CSc1nc(N/C=C(\C#N)S(=O)(=O)c2ccccc2Cl)nc(C2CC2)n1	14
O=C(CCC1COc2ccccc2O1)Nc1ccc(NC(=O)c2ccccc2F)cc1 (configuration not stated)	-6
C[C@H]1CN([C@@H](C)CO)C(=O)c2cccc(NS(=O)(=O)c3ccc(F)cc3)c2O[C@H]1CN(C)Cc1ccc(-c2ccccc2)cc1	65
Cc1cc(C(=O)Nc2cccc3c2O[C@H](CN(C)Cc2ccc(Cl)c(Cl)c2)[C@H](C)CN([C@H](C)CO)C3=O)n(C)n1	26
O=C(NCCCN1CCCC1=O)c1cc(-c2ccccc2)nc2ccccc12	-27
O=C(NCc1cccnc1)c1ccc(Cl)c(S(=O)(=O)N2CCOCC2)c1	13
C[C@@H]1CN([C@H](C)CO)C(=O)Cc2cc(NC(=O)CCCCCC(=O)Nc3ccccc3N)ccc2O[C@H]1CN(C)Cc1ccc(-c2ccccc2)cc1	140*
O=C(CSc1nnc(-c2ccccc2)n1-c1ccccc1)c1cccc([N+](=O)[O-])c1	1
C[C@@H]1CN([C@H](C)CO)C(=O)c2cccc(NS(=O)(=O)c3ccccc3)c2O[C@@H]1CN(C)S(=O)(=O)c1ccccc1	27
COC(=O)c1cc(O)cc(OC)c1Oc1c(Cl)c(C)c(Cl)c(O)c1C(=O)O	2
Cc1ccc(Cl)cc1NC(=O)C(C)n1cc([N+](=O)[O-])cn1 (configuration not stated)	40
CC(C)NC(=O)Nc1cccc2c1O[C@@H](CN(C)C(=O)NC(C)C)[C@H](C)CN([C@H](C)CO)C2=O	-6
C[C@H]1CN([C@@H](C)CO)C(=O)c2cccc(NS(=O)(=O)c3ccc(F)cc3)c2O[C@@H]1CN(C)C(=O)Nc1cccc2ccccc12	9
Cc1ccc(Nc2nc(CSc3nnnn3-c3ccccc3)cc(=O)[nH]2)cc1	1
COc1ccc(S(=O)(=O)N(C)CC(=O)Nc2ccc(I)cc2)cc1C	3
CNC[C@H]1Oc2ccc(NC(=O)Nc3ccccc3)cc2CC(=O)N([C@@H](C)CO)C[C@@H]1C	0
Cc1cc(C)nc(SC2CCCCC2NS(=O)(=O)c2ccc(Cl)cc2)n1 (configuration not stated)	7

An excerpt; the hit share may differ from the screen's.
